# Compound activity (PubChem BioAssay)
# VDR inh: blocks the human vitamin D receptor. P11473. VDR-SRC2-3 peptide fluorescence polarization, 2 h. Potency, µM, for the others: max response, negative = inhibition, hits mostly inhibitors. actives 0.93% (n = 400,000); active means well fitted inhibition curve with a large enough effect; inconclusive means small, poorly fitted or top-dose-only effect, or another doubt; inactive means no such curve, though single readings can be large or run the other way; further: series mostly up to about 120 µM
# Target sequence (P11473 whole entry, looked up): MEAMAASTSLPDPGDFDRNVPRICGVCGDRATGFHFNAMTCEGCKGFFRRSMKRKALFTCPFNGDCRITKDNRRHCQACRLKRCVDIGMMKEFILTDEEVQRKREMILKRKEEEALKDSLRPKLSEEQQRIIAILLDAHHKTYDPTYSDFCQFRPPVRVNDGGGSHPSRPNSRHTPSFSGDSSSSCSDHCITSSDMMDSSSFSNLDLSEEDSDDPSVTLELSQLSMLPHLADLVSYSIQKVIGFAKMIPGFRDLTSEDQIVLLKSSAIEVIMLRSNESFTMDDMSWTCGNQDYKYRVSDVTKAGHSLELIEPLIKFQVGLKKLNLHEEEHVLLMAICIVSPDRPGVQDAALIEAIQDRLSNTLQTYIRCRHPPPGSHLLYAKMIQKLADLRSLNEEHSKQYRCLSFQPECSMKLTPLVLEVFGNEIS
#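 Measured by FP: displacement of SRC2-3 coactivator peptide from VDR by library compounds, following a two-hour ambient incubation.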
# * hit, by the source's call; ? = inconclusive; & = joins results of further samples. On the % scale 0 is the no-effect control and ±100 the full control effect; potency means the concentration at half of the fitted maximal effect. The list is partial, so the mix of outcomes need not match the whole.
SMILES,VDR inh
COc1cccc2cc(C(=O)NCc3ccc(C)cc3)c(=O)oc12,-22%
O=C1C2ON(c3ccccc3)C(c3cccnc3)C2C(=O)N1c1ccccc1 (configuration not stated),15%
NNC(=O)c1ccc(CSc2cccc3cccnc23)cc1,-19%
COc1ccc(CC(=O)Nc2cccc(S(=O)(=O)N3CCCC3)c2)cc1OC,-1%
CC1=CC(c2ccc(Cl)cc2)n2nc(NS(=O)(=O)c3ccc(C)cc3)nc2N1 (configuration not stated),-21%
CCn1cc(C(=O)N2CCN(c3cccc(Cl)c3)CC2)c(=O)c2cc(S(=O)(=O)N3CCC(C)CC3)ccc21,-11%
COc1ccc(N2CCN(C(=O)c3cc(=O)c4cc(C)c(C)cc4o3)CC2)cc1,5%
COc1ccc(/C=N\NC(=O)c2sc(N)nc2C)cc1OC,?
CCn1cc(/C=C(\NC(=O)c2ccccc2Cl)C(=O)NCCCn2ccnc2)c2ccccc21,7%
CCOC(=O)C(Cc1ccccc1)C(=O)Nc1ccc(N(CC)CC)cc1 (configuration not stated),-8%
CCN(CCCCO)c1nc(C)nc2c1c(C)c(C)n2-c1c(C)cc(C)cc1C,?
CC1CCc2nc(N)c(C#N)c(-c3cccn3C)c2C1 (configuration not stated),13%
Fc1ccc(-n2cc(-c3ccccc3)c3c(NC4CCCCC4)ncnc32)cc1,-2%
CCOc1ccc(-c2csc(/C(C#N)=C\c3ccc(O)c([N+](=O)[O-])c3)n2)cc1,-2%
O=C1CN(c2ccccc2)C(=S)N1c1ccccc1,3%
NS(=O)(=O)c1ccc(NC(=O)COC(=O)CSCc2ccc(F)cc2)cc1,-5%
COc1ccc(Nc2sc(C(=O)c3ccccc3)c(N)c2C(=O)Nc2cc(C)ccc2C)c(OC)c1,9%
O=C(NCCc1ccccc1)C1CCC(CNS(=O)(=O)c2ccccc2)CC1 (configuration not stated),14%&8%
Cc1ccc(-c2onc3ccc(C4OCCO4)cc23)cc1,-10%
CCc1ccc(CN(C(=O)c2ccco2)C2CCS(=O)(=O)C2)cc1 (configuration not stated),-14%
Cc1ccc(NS(=O)(=O)c2ccc(CCC(=O)NCc3cccnc3)cc2)cc1,10%
Cc1ccc(OC(=O)CCc2c(C)nc3ncnn3c2C)cc1,3%
CCCNc1nc(C)c(C(C)=O)cc1C#N,14%
O=C(CSc1ccc(-c2ccccc2)nn1)Nc1ccc2c(c1)OCCO2,-19%
CC1(C)CC(=O)C2=C(C1)N=C1SCCC(=O)N1C2c1cccc([N+](=O)[O-])c1 (configuration not stated),-12%
N#Cc1cc2c(nc1Cl)CCC2,3%
CN(C)c1ccc(C(=O)Nc2ccc(-c3nc4ccccc4o3)cc2)cc1,-5%
O=C(N/C(=C\c1ccc([N+](=O)[O-])cc1)C(=O)N1CCCCC1)c1ccco1,5%
COc1cccc(C(=O)c2c(-c3ccccc3)ncc3cc(OC)c(OC)cc23)c1,-7%
CC(C)(C)C(=O)C[n+]1cccc(C(N)=O)c1,-14%
O=c1n(Cc2ccc(F)cc2)nc2n1-c1cc(Cl)ccc1OC2,-10%
Cc1ccc(CC(=O)N(C)CC(=O)N(CC(C)C)c2c(N)n(CC(C)C)c(=O)[nH]c2=O)cc1C,?
CCn1ncc([N+](=O)[O-])c1C(=O)N1CCc2ccccc2C1,4%
O=S(=O)(NC1CC1)c1ccc(S(=O)(=O)N2CCc3ccccc32)cc1,9%
COc1ccc(NC(=O)CN(C)S(=O)(=O)c2ccccc2)cc1OC,11%
CCOn1c(=O)c(-c2cccc([N+](=O)[O-])c2)[n+]([O-])c2ccccc21,-9%
Cc1ccccc1Cn1cnc2c(nnn2Cc2ccc(F)cc2)c1=O,89µM*
Cc1ccc(NC(=O)c2ccc(COc3ccccc3Cl)o2)cc1,1%
C=CCN1C(=O)/C(=C/c2ccc(-c3ccc(F)cc3)o2)SC1=S,-16%
O=C(CSc1nc(Cc2ccccc2)nc2ccccc12)c1ccc2c(c1)OCCO2,2%
Cc1ccc(S(=O)(=O)N2CCCCC2)cc1NC(=O)COC(=O)CNC(=O)c1cc(Cl)cc([N+](=O)[O-])c1,-10%
Clc1ccc(CSc2ncnc3nc[nH]c23)cc1,-7%
COc1ccc(OC)c(NS(=O)(=O)c2ccc(NC(=O)C3COc4ccccc4O3)cc2)c1 (configuration not stated),-4%
Cc1cc(C(=O)CN2C(=O)C(=O)N(Cc3ccccc3)C2=O)c(C)n1Cc1ccccc1,-16%
O=S(=O)(NC1CCCc2ccccc21)c1cnc[nH]1 (configuration not stated),-2%
Cc1cc(=O)oc2ccc(OC(=O)c3cccc(S(=O)(=O)N4CCOCC4)c3)cc12,13%
CC(=O)Nc1ccc(NC(=O)CSc2nnc(C)c(=O)[nH]2)cc1,3%
COc1ccc(C2=CC(c3ccc(Cl)cc3)n3cnnc3N2)cc1OC (configuration not stated),-7%
O=S(=O)(c1ccc2c(c1)OCCO2)N1CCC(n2cnc3cc(F)ccc32)CC1,2%
CC12CCC(=O)N1C(C(=O)Nc1nc3ccc(S(C)(=O)=O)cc3s1)CS2 (configuration not stated),-14%
O=C(NC1CC1)c1cc2cc3ccccc3nc2s1,2%
O=C1CCN(Cc2ccccc2)S(=O)(=O)c2ccccc21,?
COCCNC(=O)CC(NS(=O)(=O)c1ccc(C)cc1)c1ccco1 (configuration not stated),-13%
C=C(C)Cn1c(=O)c2c(nc3n2CCCN3CCc2ccccc2)n(C)c1=O,6%
CCC(C)(C)NC(=O)C(c1cccnc1)N(CCOC)C(=O)Cn1nnc2ccccc21 (configuration not stated),-10%
CCN1C(=O)N[C@@H](CCc2ccccc2)C(C(=O)OC)=C1C,13%
Cc1cc2ccccc2n1CCNC(=O)c1ccc(F)cc1,-25%
O=S(=O)(NCc1nc2cccnc2n1Cc1ccc(F)cc1)c1ccc2c(c1)CCCC2,7%
CC(C)c1ccc(CCNC(=O)CCNS(=O)(=O)c2ccc(Br)cc2)cc1,14%
CC[C@@H]1CCCCc2ccccc2[C@@H](C(=O)C[C@@H](O)CC(C)=O)OC1=O,-2%
# (next part)
SMILES,VDR inh
Cc1cccc(NS(=O)(=O)Cc2ccccc2)c1C,-16%
O=C(O)C1=C(C(=O)Nc2ccc(F)c(Cl)c2)CCCC1,7%
CC1CC(N(C(=O)c2ccccc2Cl)c2ccccc2)c2ccccc2N1 (configuration not stated),-20%
c1csc(-c2cnc3n2CCCC3)c1,-23%
CC(C)C1(C(C)C)OC(=O)c2ccccc21,-16%
CCCc1cc(=O)[nH]c(SCC(=O)Nc2cc(S(=O)(=O)N3CCOCC3)ccc2Cl)n1,-15%
c1ccc2c(c1)nc1n2CCS1,-20%
COc1ccc(CN2CCN(C(C)C(=O)N3CCc4ccccc43)CC2)cc1OC (configuration not stated),-8%
Cc1nc(NC(=O)c2c(-c3ccccc3)c(-c3ccccc3)nn(C)c2=O)sc1C,-5%
NC(=O)c1nc(Nc2ccccc2)sc1NC(=O)c1ccccc1Br,4%
O=C(CCCSc1nc2ccccc2[nH]1)NC(c1ccccc1)c1ccccc1,6%
COc1cccc(CNC(=O)N[C@@H](C)C(=O)O)c1,7%
O=C(c1cc2ccccc2oc1=O)N(Cc1cccs1)Cc1cccs1,?
COc1ccc(C(=O)/C=C/c2cccs2)c(OC(=O)c2cccc([N+](=O)[O-])c2)c1,-7%
CC(NC(=O)C1CSC2(C)CCC(=O)N12)c1ccccc1Cl (configuration not stated),9%
O=C(NC1CCCCC1)c1ccc([N+](=O)[O-])o1,16%
Cc1ccc(S(=O)(=O)CCC(=O)OCC(=O)NC(C)c2ccc(F)cc2)cc1 (configuration not stated),-7%
COc1cc(OC)c(C(=O)CCCN2CCCC2)c(OC)c1,-14%&4%
O=C(c1ccc(Cl)cc1)C1CCN(C(=O)N2CCOCC2)CC1,-13%
CN(C)C(=N)c1n[nH]nc1SCc1ccccc1,-18%
COc1ccc(/C=C2\SC(=NCc3ccccc3)N(Cc3ccccc3)C2=O)cc1OC,-13%
C=C(C)CN=C1SC(C(=O)Nc2sc3c(c2C(=O)OC)CCC3)C(N)=C1C(N)=O (configuration not stated),-19%
O=C(c1ccc2c(c1)OCO2)C1CCCN(C2CCN(CCc3ccccc3)CC2)C1 (configuration not stated),-9%
CCOC(=O)c1ccc(NC(=O)CSc2nncn2-c2cccnc2)cc1,-7%
CCCCCOc1ccccc1C(=O)NCCC(=O)O,4%
C=CCNC(=O)C1CC(=O)N(c2ccc(OCC(=O)Nc3ccc(OC)cc3)cc2)C1 (configuration not stated),6%
O=[N+]([O-])c1cc(Cl)cc(/C=N/n2cnnc2)c1O,-8%
CN(CC(=O)Nc1ccccc1Br)C(=O)c1cccn1C,0%
O=C1CCC(C(=O)N2CCCC(Nc3ccc(F)cc3)C2)=NN1 (configuration not stated),-11%
O=C(Oc1ccc(C(=S)N2CCOCC2)cc1Cl)c1ccccc1F,-29%
CC(=O)Oc1ccc2c(c1OC(C)=O)OCC1(O)Cc3c(cc(OC(C)=O)c(OC(C)=O)c3OC(C)=O)C21 (configuration not stated),-8%
CC1CCN(C2CC(=O)N(c3ccccc3)C2=O)CC1 (configuration not stated),-7%
Cc1cc(C)cc(NS(=O)(=O)c2ccc(NC(=S)Nc3ccccc3)cc2)c1,-14%
CCOC(=O)Nc1ccc2ncn(C)c(=O)c2c1,18%
CC12CCC(C(=O)N(CSC(=S)N/N=C\c3ccccc3Cl)C1=O)C2(C)C (configuration not stated),-16%
Cc1ccccc1NS(=O)(=O)c1cc2c3c(c1)C(C)C(=O)N3CCC2 (configuration not stated),-5%
C=CCn1c2ccccc2c2nnc(SCc3ccc4nonc4c3)nc21,1%
Cc1nnc(SCC(=O)NC2CC2)n1CC1CCCO1 (configuration not stated),-1%
Cc1cccc(Oc2ccc(NC(=O)c3ccccc3C(=O)O)cc2)c1C,13%
CCN(CC1COc2ccccc2O1)C(=O)CN1C(=O)NC(C)(c2ccc(C)cc2)C1=O (configuration not stated),7%
CN1C(C(=O)N2CCc3ccccc3C2)=CC(c2ccc(F)cc2)=NS1(=O)=O,-26%
Cc1cccn2cc(CNC(=O)c3ccco3)nc12,-19%
CCOC(=O)C1=C(C)N(CCO)C(=O)NC1c1ccccc1 (configuration not stated),-5%
O=c1cc(CSc2ccccc2)[nH]c2ccccc12,-3%
COc1cc(O)c2c(c1)O[C@H](c1ccccc1)CC2=O,-14%
CC1CCCCN1Cc1nc2c(c(=O)n(C)c(=O)n2C)n1Cc1ccc(Br)cc1 (configuration not stated),2%
CSCC[C@H](NC(=O)[C@H](Cc1ccccc1)n1c(=O)[nH]c2ccccc2c1=O)C(=O)N1CCC(C(=O)O)CC1,6%
Clc1cccc(C[n+]2cc(-c3ccccc3)n3c2CCC3)c1,-1%
CCOc1ccc(CCNC(=O)CCc2c(C)nc3c(c(C)nn3-c3ccc(C)c(C)c3)c2C)cc1,-13%
C=CCON1C(=O)c2ccccc2C1=O,0%
COC(=O)c1sccc1NC(=O)c1cccs1,-12%
C[N+]1(C)[C@@H]2CC(OC(=O)C(O)(c3cccs3)c3cccs3)C[C@H]1[C@@H]1O[C@@H]12 (some centres not stated),10%
COc1ccc(-c2nc3sc(CCNC(=O)Cc4ccc(F)cc4)c(C)n3n2)cc1,27%
Cc1cccc(C(=O)Nc2cccnc2Cl)c1,-9%
CCN(Cc1ccccc1)C(=O)CCS(=O)(=O)c1ccc2c(c1)n(C)c(=O)c(=O)n2C,-20%
CCN(CC(=O)Nc1ccc2c(c1)OCCO2)CC(=O)Nc1ccccc1C(F)(F)F,-24%
O=C(CN(C(=O)Cn1nnc(-c2ccc(F)cc2)n1)c1cnc2ccccc2c1)NCC1CCCO1 (configuration not stated),-1%
CCOC(=O)c1sc(Nc2ccccc2)nc1C,-11%
COc1ccc(OC)c(NC(=O)[C@H](Cc2ccccc2)N2Cc3ccccc3C2=O)c1,-10%
Cc1ccc2c(c1)cc1c(=O)n(CC(=O)N3CCCC3)nc(C)n12,0%
CN1C(=O)S/C(=C/c2ccccc2OCc2ccc(C(=O)O)cc2)C1=O,?

# Copied from the list:
# `C[N+]1(C)[C@@H]2CC(OC(=O)C(O)(c3cccs3)c3cccs3)C[C@H]1[C@@H]1O[C@@H]12` (some centres not stated) @ VDR inh: 10%
# `COc1ccc(-c2nc3sc(CCNC(=O)Cc4ccc(F)cc4)c(C)n3n2)cc1` @ VDR inh: 27%

# Entries above that have fluorine (16):
SMILES,VDR inh
Fc1ccc(-n2cc(-c3ccccc3)c3c(NC4CCCCC4)ncnc32)cc1,-2%
NS(=O)(=O)c1ccc(NC(=O)COC(=O)CSCc2ccc(F)cc2)cc1,-5%
O=c1n(Cc2ccc(F)cc2)nc2n1-c1cc(Cl)ccc1OC2,-10%
Cc1ccccc1Cn1cnc2c(nnn2Cc2ccc(F)cc2)c1=O,89µM*
C=CCN1C(=O)/C(=C/c2ccc(-c3ccc(F)cc3)o2)SC1=S,-16%
O=S(=O)(c1ccc2c(c1)OCCO2)N1CCC(n2cnc3cc(F)ccc32)CC1,2%
Cc1cc2ccccc2n1CCNC(=O)c1ccc(F)cc1,-25%
O=S(=O)(NCc1nc2cccnc2n1Cc1ccc(F)cc1)c1ccc2c(c1)CCCC2,7%
O=C(O)C1=C(C(=O)Nc2ccc(F)c(Cl)c2)CCCC1,7%
Cc1ccc(S(=O)(=O)CCC(=O)OCC(=O)NC(C)c2ccc(F)cc2)cc1 (configuration not stated),-7%
O=C1CCC(C(=O)N2CCCC(Nc3ccc(F)cc3)C2)=NN1 (configuration not stated),-11%
O=C(Oc1ccc(C(=S)N2CCOCC2)cc1Cl)c1ccccc1F,-29%
CN1C(C(=O)N2CCc3ccccc3C2)=CC(c2ccc(F)cc2)=NS1(=O)=O,-26%
COc1ccc(-c2nc3sc(CCNC(=O)Cc4ccc(F)cc4)c(C)n3n2)cc1,27%
CCN(CC(=O)Nc1ccc2c(c1)OCCO2)CC(=O)Nc1ccccc1C(F)(F)F,-24%
O=C(CN(C(=O)Cn1nnc(-c2ccc(F)cc2)n1)c1cnc2ccccc2c1)NCC1CCCO1 (configuration not stated),-1%
